Compound activity from PubChem.
TRPML1 agonist: qHTS for Agonists of the Human Mucolipin Transient Receptor Potential 1 (TRPML1); Mucolipin-1 (Homo sapiens), Q9GZU1; TRPML1-expressing cells, Ca2+ dye fluorescence, FDSS; host cell line not named in the record; reference of the full effect not given here; activation, % (concentration not given with the values); hit rate 0.12% among 410,000; AID 624414, 2012; in the data active = activation above about 50%; inconclusive = about 30% to 50%; inactive = below about 30%; note: 0% is about no effect; the text of the record puts the active cut at 80%
Target sequence (Q9GZU1 whole entry, looked up): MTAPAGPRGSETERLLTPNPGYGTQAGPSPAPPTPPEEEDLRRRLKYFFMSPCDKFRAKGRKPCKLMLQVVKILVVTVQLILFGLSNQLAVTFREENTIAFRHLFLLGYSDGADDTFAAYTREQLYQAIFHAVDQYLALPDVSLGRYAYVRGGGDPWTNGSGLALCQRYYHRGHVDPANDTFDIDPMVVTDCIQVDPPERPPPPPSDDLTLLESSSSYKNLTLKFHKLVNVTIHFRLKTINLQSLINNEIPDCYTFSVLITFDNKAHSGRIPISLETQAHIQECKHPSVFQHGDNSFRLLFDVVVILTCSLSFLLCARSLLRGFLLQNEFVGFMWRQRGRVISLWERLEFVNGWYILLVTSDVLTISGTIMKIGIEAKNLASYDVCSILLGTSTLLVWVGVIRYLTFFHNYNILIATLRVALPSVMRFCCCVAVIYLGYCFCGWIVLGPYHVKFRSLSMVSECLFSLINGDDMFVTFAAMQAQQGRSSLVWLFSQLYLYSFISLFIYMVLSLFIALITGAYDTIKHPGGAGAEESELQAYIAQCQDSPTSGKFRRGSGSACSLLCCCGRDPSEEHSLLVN
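In this qHTS format, compounds were pin-transferred onto Ca8-dye-loaded TRPML1-DL cells induced with Tet overnight, and intracellular Ca2+ fluorescence was recorded kinetically for 110 s after a 10 s baseline. A subsequent 4uM final 54-4 (EC80) addition followed by a second 110 s read served as the antagonist phase.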
D2 ag: Beta-Arrestin HTS for Positive Allosteric Modulators of the Human D2 Dopamine Receptor: Agonists; D(2) dopamine receptor (Homo sapiens), P14416; DiscoveRx PathHunter D2 beta-arrestin, luminescence, 90 min; 100% = 57 uM dopamine signal; activation, % (concentration not given with the values); hit rate 0.084% among 360,000; AID 624465, 2012; in the data active = activation above about 40%; inconclusive = about 15% to 40%; inactive = below about 15%; note: compound concentration not given in the record; the text of the record calls up to 30% inactive
Target sequence (P14416 whole entry, looked up): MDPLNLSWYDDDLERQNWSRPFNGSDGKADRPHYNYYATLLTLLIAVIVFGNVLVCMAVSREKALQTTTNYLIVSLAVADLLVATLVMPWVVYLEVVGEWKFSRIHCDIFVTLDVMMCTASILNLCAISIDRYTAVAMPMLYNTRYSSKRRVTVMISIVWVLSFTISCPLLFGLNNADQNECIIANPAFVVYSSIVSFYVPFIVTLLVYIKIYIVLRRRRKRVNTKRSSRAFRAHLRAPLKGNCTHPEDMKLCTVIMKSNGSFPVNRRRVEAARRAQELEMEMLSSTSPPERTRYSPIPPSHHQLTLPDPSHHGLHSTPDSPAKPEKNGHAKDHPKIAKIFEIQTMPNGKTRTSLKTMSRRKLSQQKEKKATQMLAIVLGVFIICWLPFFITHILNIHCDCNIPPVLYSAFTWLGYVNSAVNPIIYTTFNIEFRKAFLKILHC
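Agonist mode: compounds alone added to overnight-plated D2 PathHunter cells for 90 min at 37 C, with 57 uM final dopamine (EC100) defining full response. Beta-arrestin recruitment detected by chemiluminescent reagent, read after 1 h at ambient temperature.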
CtBP-E1A blk: qHTS Assay for Inhibitors of the CtBP/E1A Interaction; activity change, % (concentration not given with the values); hit rate 0.49% among 340,000; AlphaScreen GST-E1A/His-CtBP binding, 1536-well; stronger effect = lower value; control for the full effect not named in the record; in the data active means activity change below about -65%; inconclusive means about -30% to -65%; inactive means above about -30%; note: % is set by controls: 0 for no effect and ±100 for the full control effect
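GST-E1A and His-tagged CtBP (125 nM each as 5X stock) were preincubated with pin-transferred compound for 2 h at 37 °C in the dark, then glutathione donor and nickel acceptor beads were added for 1 h before AlphaScreen reading.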
TRPML1 blocker: qHTS for Inhibitors of the Human Mucolipin Transient Receptor Potential 1 (TRPML1). Mucolipin-1 (Homo sapiens), Q9GZU1. AID 624415, 2012. activity change, negative = inhibition, % (no concentration beside the values). TRPML1-inducible cells, Ca2+ dye fluorescence, FDSS; stronger effect = lower value; inhibition of EC80 agonist-evoked calcium signal. hit rate 0.02% among 390,000; in the data active means activity change below about -50%; inconclusive means about -30% to -50%; inactive means above about -30%;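 note: stimulus is agonist 54-4 at its EC80 concentration; % is set by controls: 0 for no effect and ±100 for the full control effect; compound concentration not given in the record; the text of the record puts the active cut at -80%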
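Calcium fluorescence in TRPML1-DL cells induced overnight with Tet: a 110 s read after compound pin addition, then a 110 s antagonist read after challenge with 54-4 at 4 uM final (EC80).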
Six1-Eya2 inh: qHTS Assay for Inhibitors of the Six1/Eya2 Interaction; activity change, % (test concentration not listed); AlphaScreen GST-Six1/His-Eya2 binding, biochemical; stronger effect = lower value; control for the full effect not named in the record; hit rate 0.56% among 360,000; Homeobox protein SIX1 (Homo sapiens) + Protein phosphatase EYA2 (Homo sapiens), …; AID 651725, 2012; in the data active = activity change below about -65%; inconclusive = about -30% to -65%; inactive = above about -30%; note: % is set by controls: 0 for no effect and ±100 for the full control effect; compound concentration not given in the record
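GST-Six1 + His-Eya2 (5X stock: 250/500 nM); Tris pH 8.0, 300 mM NaCl, 0.05% BSA, 0.02% Tween 20; GSH donor/Ni acceptor beads; 1 h 37 °C dark; AlphaScreen readout.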
PINK1 modulator: A Quantitative High throughput Screen to Identify Chemical Modulators of PINK1 Expression. Potency, µM (titrated, usually from 76.6 µM), without a hit: at the highest dose activation (PINK1 increase), usual class: activators. hit rate 0.2% among 410,000. PINK1 immunofluorescence, high-content cytometry, 24 h; active = well fitted activation curve with a large enough effect; inconclusive = small, poorly fitted or top-dose-only effect; inactive = flat fitted curve, though single readings scatter; cell line not stated here;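 note: potency is the fitted concentration of half-maximal effect; % of control where 0% means no effect; nearly all actives have a fitted effect of over 65% in size; a mitochondrial uncoupler was the plate control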
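Cells are seeded, rested 12 hours, then given compound at five concentrations or DMSO for 24 hours. After fixation, blocking and antibody staining, PINK1 amount and mitochondrial localization are scored; CCCP serves as control.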
The depositor's hits bear a star; u = inconclusive; x = not tested or not shown; & = joins results of further samples; [ ] = dose if it differs, or a comment. Compounds as they come; any-hit rate near 1%.

SMILES	TRPML1 agonist	D2 ag	CtBP-E1A blk	TRPML1 blocker	Six1-Eya2 inh	PINK1 modulator
C=CCN1C(=O)C2(/C(=C(\O)c3ccc4c(c3)OCCO4)C(=O)C(=O)N2CCCOC)c2ccccc21 (stereo unspecified)	-0.6	-2.2	3	0	1	-4.3%[38.3 µM]
O=C(c1c[nH]c(C(=O)C(Cl)(Cl)Cl)c1)c1ccccc1F	x	-5.3	-4	x	3	-0.7%
COC(=O)c1ccc(NC(=O)CSc2nnc(-c3ccccc3Br)n2-c2ccccc2)cc1	0.2	7.2	-6	-4	6	2.1%
Cc1ccc(NC(=O)COc2ncnc3c(Cl)cc(Cl)cc23)cc1[N+](=O)[O-]	1.1	-1.9	-8	-13	-3	9.8%
CCOC(=O)c1cc(-c2ccc(OC)cc2)n(CCC(=O)Nc2ccc(OC)cc2OC)c1C	1.8	x	x	21	x	-1.4%
Cc1ccc(NC(=O)c2cnc3cc(C)ccn3c2=O)c(C)c1	-0.3	x	x	2	x	-0.9%
Cc1ccc(S(=O)(=O)N2CCOCC2)cc1NC(=O)COC(=O)c1cccc(Cl)c1Cl	4.2	-1.5	6	57	-8	1.7%
O=C(CSc1n[nH]c(=O)[nH]c1=O)N/N=C/C=C\c1ccccc1	0.7	1.3	x	-2	-5	0.0%
O=C(O)CSC(=S)N1CCCCC1	-0.3	-3.5	1	-16	9	1.4%
COc1ccc(OC)c(S(=O)(=O)NCc2cn3c(C)csc3n2)c1	-0.1	-3.5	-26	-5	9	-0.5%
Cc1cccc(NS(=O)(=O)c2ccc(C(=O)NCC(c3ccco3)N3CCCCC3)cc2)c1C (stereo unspecified)	1.3	-3.5	-2	-8	-13	0.8%
CN(C)c1ccc(CNc2nc3cc(-c4ccc(F)cc4)sc3c(=O)n2C)cc1	0.0	-3.1	-4	x	-6	6.2%
CCN(CC)C(=O)c1cc([N+](=O)[O-])cc2c1-c1ccc([N+](=O)[O-])cc1C2=C(C#N)C#N	-0.1	u	-23	-6	-17	-0.5%
CC(=O)c1ccc(NC(=O)c2nc(-c3ccc(C)cc3)n3c2CCCCC3)cc1	3.2	x	x	-7	x	6.6%
C[C@H]1CN([C@@H](C)CO)C(=O)CCCn2cc(nn2)CO[C@@H]1CN(C)C(=O)Nc1ccccc1F	0.5	5.2	3	-10	-2	3.7%
CC(=O)Nc1ccc2c(c1)C(=Nc1ccccc1)c1ccccc1-2	0.8	-3.4	-27	6	-18	2.7%
CC(C)(C)c1cc(NCCCn2ccnc2)n2ncc(-c3ccc(Cl)cc3)c2n1	1.0	12	-8	-9	5	u
COCCNC(=O)C(c1ccc(O)cc1)N(C(=O)CCC(=O)Nc1nccs1)c1ccc(C)cc1 (stereo unspecified)	1.8	1.5	0	5	-1	-2.2%
Fc1ccc2c(c1)C1OCCCC1C(c1ccccc1)N2 (stereo unspecified)	1.9	9.6	-29	46	-25	12%
N#Cc1ccc(OCC(=O)OCC(=O)N2CCc3ccccc32)cc1	-0.9	-3.0	0	8	4	0.7%
O=C(NN1C(=O)C2C(C1=O)C1C=CC2C12CC2)c1cccc(Cl)c1 (stereo unspecified)	-0.7	0.2	6	16	0	0.4%
CCOc1ccc(-n2c(O)c(/C=N/NC(=O)C3COc4ccccc4O3)c3ccccc3c2=O)cc1 (stereo unspecified)	2.8	-5.8	-8	10	-21	-2.4%
COc1ccc(C(=O)OCC(=O)Nc2ncc([N+](=O)[O-])s2)cc1OC	0.1	-2.4	-15	-9	u	0.5%
CCCC(=O)Nc1ccccc1NC(=O)CCC	-0.5	-1.7	5	-8	9	-1.7%
CCC(=O)N1N=C(c2ccc(C)o2)CC1c1ccc(Br)cc1 (stereo unspecified)	2.5	-0.5	-12	-10	-7	-1.2%
Cc1cc(Cl)ccc1NS(=O)(=O)c1ccc2c(c1)CC(C)N2C(=O)C1CCC1 (stereo unspecified)	1.0	x	x	9	x	-0.8%
Cc1ccccc1-n1c(Cn2c(=O)sc3ccccc32)nnc1SCC(=O)N1CCCC1	0.9	-2.9	3	11	2	3.5%
O=C(Cc1ccccc1)NNC(=O)C1CCN(c2ncccn2)CC1	0.3	-3.9	6	-8	-4	0.1%
COc1ccc(C(=O)c2sc(Nc3cccc(OC)c3)c(C(=O)Nc3cccc(C)c3C)c2N)cc1	61*	-25	u	-20	-13	-1.9%
O=C(/C=C/c1cccc([N+](=O)[O-])c1)NCCSc1ccccc1	0.7	0.9	-3	-10	0	-1.0%
COC(=O)[C@@]12CCCN1[C@H](c1ccc(-c3ccccc3)cc1)[C@H]1C(=O)N(C)C(=O)[C@H]12	-0.9	2.1	-23	-5	4	0.0%
Cc1ccc(CC(=O)Nc2ccc(Cl)cn2)cc1	x	7.2	x	x	0	0.4%
CCOc1ccc(/C=C2\SC(=S)N(C)C2=O)cc1OC	0.1	-4.4	3	0	-6	15%
CSc1nc2ccc(NC(=O)c3ccc(F)c(F)c3)cc2s1	-0.4	-2.1	3	-3	-4	u
O=C(CCSc1ccc(Cl)cc1)c1cccs1	-0.8	-7.5	26	3	25	0.4%
CCCn1c(N)c(C(=O)CSc2nnc(C3CC3)n2Cc2ccccc2)c(=O)n(C)c1=O	-0.6	3.7	-6	-4	-10	-1.4%
CN=C1CC(C)(C)CC(=O)/C1=C(/O)CCCN1C(=O)c2ccccc2C1=O	0.3	-3.1	13	-9	21	0.7%
COc1cc(OC)c(OC)cc1/C=C/c1cc(C(F)(F)F)[nH]c(=O)n1	3.7	-3.3	8	7	12	-2.6%
O=C(Cn1nnc(-c2cccs2)n1)NCc1ccco1	3.5	-3.2	x	8	1	0.8%
CCN(C(=O)COC(=O)/C=C/c1ccc(C)o1)c1c(N)n(Cc2ccccc2)c(=O)[nH]c1=O	-0.1	-2.8	6	6	-3	1.0%

Single records, as listed above:
CCN(C(=O)COC(=O)/C=C/c1ccc(C)o1)c1c(N)n(Cc2ccccc2)c(=O)[nH]c1=O in the list: TRPML1 agonist = -0.1; D2 ag = -2.8; CtBP-E1A blk = 6; TRPML1 blocker = 6; Six1-Eya2 inh = -3; PINK1 modulator = 1.0%
Cc1cc(Cl)ccc1NS(=O)(=O)c1ccc2c(c1)CC(C)N2C(=O)C1CCC1 (stereo unspecified) in the list: TRPML1 agonist = 1.0; D2 ag = x; CtBP-E1A blk = x; TRPML1 blocker = 9; Six1-Eya2 inh = x; PINK1 modulator = -0.8%

(more compounds)
SMILES	TRPML1 agonist	D2 ag	CtBP-E1A blk	TRPML1 blocker	Six1-Eya2 inh	PINK1 modulator
COc1ccc(-n2cc(CNCCCN3CCCC3=O)c(-c3ccccc3Cl)n2)cc1	0.3	-2.4	-6	10	0	-1.2%
CCOC(=O)c1c(NC(=O)CSc2nnnn2C)sc(C)c1C	0.9	0.7	-2	16	-6	0.1%
COc1ccc(C(=O)N2N=C(c3cccc(OC)c3)CC2(O)C(F)(F)F)cc1 (stereo unspecified)	2.1	-2.6	5	-21	8	0.3%
Cc1ccccc1SCC(=O)NNC(=O)c1ccncc1	-0.1	-7.8	8	5	-2	0.8%
C=CC[C@@H](CC(=O)N(CCO)Cc1ccccc1)C(=O)N[C@H](COC(=O)[C@@H](CC=C)CC(=O)OC(C)(C)C)Cc1c[nH]c2ccccc12	0.3	4.6	-9	7	-12	1.0%
O=C(NC(=S)NC1CCSC1=O)c1cccc([N+](=O)[O-])c1 (stereo unspecified)	-0.6	-3.5	-1	-5	-3	-0.1%
COc1ccc(S(=O)(=O)NCC2CCCN(Cc3cn(C)nc3C)C2)cc1 (stereo unspecified)	-0.2	-2.4	1	-14	4	-0.3%
COc1ccc(C2SCC(=O)N2c2c(C)n(C)n(-c3ccccc3)c2=O)cc1OC (stereo unspecified)	2.1	-2.5	0	-10	18	-3.0%
Cc1cccc(-n2ncc3c(NC(C)C)ncnc32)c1	-0.1	2.5	-20	-7	0	-0.8%
Cc1cc(NC(=O)Nc2cc(F)ccc2C)n(C)n1	-0.5	-1.2	5	-2	-1	1.8%
Cc1cccc(NC(=O)C2CCN(S(=O)(=O)c3ccc4c(c3)NC(=O)CO4)CC2)c1C	-1.0	-0.5	0	-16	0	1.5%
CCC1CN(C(=O)Nc2cc(C)cc(C)c2)c2ccccc2O1 (stereo unspecified)	3.2	x	x	1	x	0.8%
CC(C)c1ccc(OCc2ccc(C(=O)O)o2)cc1	-0.4	-0.9	2	11	-8	2.4%
Cn1c(Cl)c(/C=N/OC(=O)c2cccc(Cl)c2)c2ccccc21	-0.2	-0.7	-5	2	14	1.8%
O=C(O)C1CCN(C(=O)COc2ccc3c4c(c(=O)oc3c2)CCC4)CC1	0.1	-2.7	0	-4	-2	-0.2%
Cn1c(SCC(=O)Nc2ccccc2F)nc2c(c1=O)SCC2	-0.1	5.3	-5	-12	-9	0.5%
CCn1c(=O)cc(SCC(=O)Nc2ccc(C)c(F)c2)c2ccccc21	1.2	x	x	6	x	2.0%
O=C(Nc1nnc(S(=O)(=O)N2CCOCC2)s1)c1cccc(Br)c1	-0.2&-0.5	-2.5	1	8&23	-4	15%&1.5%
COc1ccc(C2(O)CCN(CC(=O)Nc3nccs3)CC2)c(OC)c1	0.7	-1.5	1	-6	-2	8.7%[38.3 µM]
O=C1N[C@@H](Cc2ccccc2)C(=O)N2[C@@H]3N(S(=O)(=O)c4ccccc4)c4ccccc4[C@]3(Br)C[C@@H]12	0.4	-3.7	-1	-15	-13	-1.7%
Cc1c(NCc2cc(Cl)cc(Cl)c2O)c(=O)n(-c2ccccc2)n1C	-0.7	-6.9	-21	-7	-20	-0.8%[38.3 µM]
Cc1cc2ncc(C(=O)Nc3ccsc3C(=O)O)c(C)n2n1	-0.8	-0.4	6	-8	3	8.0%
C=CCn1c(C(C)C)nc2ccccc21	-0.1	-1.1	-19	20	3	-1.2%
Cc1ccc(-n2nnnc2SCC(=O)NC2CC2)cc1C	0.4	1.6	2	17	4	-0.3%
CSc1ccc(CN2CCN(C(C)C)C(CCO)C2)cc1 (stereo unspecified)	-0.3	-1.3	-10	5	-6	6.1%
CC(Sc1nnc(NC(=O)c2cc3ccccc3oc2=O)s1)c1ccccc1 (stereo unspecified)	-1.1	-7.3	0	-2	-6	-0.8%
Cc1c(C(=O)OCC(=O)N2CCCC2)cccc1[N+](=O)[O-]	0.6	-1.2	0	-5	7	1.9%
O=C(Nc1cccc([N+](=O)[O-])c1)ONC1=NCCCCC1	0.8	1.4	2	28	4	5.8%
